Screens from PubChem BioAssay.
ugtP null kill – kills S. aureus RN4220 lacking UgtP | S. aureus RN4220 ugtP deletion, OD600 growth, 16 h; some inactives read as strong as hits | growth inhibition, % (no concentration beside the values) | hit rate 0.54% among 330,000;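 active = z-score under -3 and OD600 up to 0.15 on both plates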;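 note: plate controls were untreated wells for no effect and antibiotic for full effect; wells of about 80 µL received 100 nL stock; the first replicate is given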
Mtb hypoxia inh – reduces hypoxia-regulated biosensor signal in M. tuberculosis. M. tuberculosis hypoxia-regulated fluorescent reporter, fluorescence. fluorescence inhibition, % (no concentration beside the values). hit rate 0.1% among 300,000. AID 1159583;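 active = 35 to 45% if threefold the growth effect, above 45% if 1.5-fold the growth effect; inactive = the rest, general growth blockers included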;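 note: wells of about 50 µL received 100 nL stock; 0% = vehicle wells and 100% = reference inhibitor wells; whole bacteria with a GFP reporter of the hypoxia response; strong numbers were not always called active; many hits fall short of the cut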
Bead autofluor – flagged as autofluorescent in microsphere protease counterscreen | compound autofluorescence counterscreen, microsphere flow cytometry; hits give high values | fluorescence intensity (test concentration not listed) | hit rate 3.1% among 360,000 | AID 624483;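 active = at least 3 SD above the mean of all compounds, about 16000 in these data; inconclusive = too few beads counted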;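 note: 100 nL of 1 mM stock went into each well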
Sa RN4220 lethal – S. aureus RN4220 growth inhibition. OD600, 16 h. inhibition, % (concentration not given with the values). hit rate 0.33% among 330,000;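 active = z-score of -3 or lower and OD600 up to 0.18 on both plates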;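 note: plate controls were untreated cells for no effect and reference antibiotic for full effect; stock transfer was 100 nL into about 80 µL; one replicate is shown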
PrP 5UTR inh – inhibition of PrP 5' UTR reporter expression. inhibition, % (no concentration beside the values). cell-based PrP 5' UTR mRNA reporter, plate reader. hit rate 0.35% among 340,000;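 active = every replicate at 50% or more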;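 note: 0 = median of the neutral control wells; tested in H4 reporter cells; numbers are from one replicate; inactives centre near -14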
BJeLR viability – BJeLR cell viability loss. BJeLR (HRASV12) viability, CellTiter-Glo ATP luminescence, 48 h; reference of the scale not given here. inhibition, % (test concentration not listed). hit rate 0.17% among 300,000. AID 1554;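 active = replicate mean above 50%; inconclusive = above 50% but judged a plate artefact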;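 note: 50 nL library stock added to about 25 µL; numbers are from one replicate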
Mtb hypoxia inh growth – also measured in Mtb hypoxia inh; calls as there; growth inhibition, %; measured here: M. tuberculosis growth (absorbance);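 0% = vehicle and 100% = reference antibiotic; read after six days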
* marks the source's active call; other numbers are inactive results.

Screening Cc1cc(=O)oc2cc(OCC(=O)Nc3ccc4[nH]c(=O)[nH]c4c3)ccc12 returned Bead autofluor 6830, PrP 5UTR inh -16 and BJeLR viability 0.
`Cc1ccc(CSc2nnc(CCCCCNC(=O)OC(C)(C)C)o2)cc1` gave Bead autofluor 3343, PrP 5UTR inh -21 and BJeLR viability -6.
Screening Cc1nn(C)cc1/C=C/C(=O)c1ccc(O)cc1 returned ugtP null kill 0, Mtb hypoxia inh -7, Bead autofluor 3209, Sa RN4220 lethal 7.2, PrP 5UTR inh -39, BJeLR viability -6 and Mtb hypoxia inh growth 7.
`CCC1(COC(NC(=O)c2cccnc2)(C(F)(F)F)C(F)(F)F)COC1` gave ugtP null kill 4, Mtb hypoxia inh 13, Bead autofluor 4896, Sa RN4220 lethal 6.2, PrP 5UTR inh -9, BJeLR viability 8 and Mtb hypoxia inh growth 6.
Cc1ccc(/C=C/C(=O)OCC(=O)Nc2ccc3[nH]c(=O)[nH]c3c2)o1 was read as ugtP null kill 4, Mtb hypoxia inh -2, Bead autofluor 5716, Sa RN4220 lethal 2.7, PrP 5UTR inh -10, BJeLR viability -2 and Mtb hypoxia inh growth -7.
O=C(CCCc1ccccn1)c1ccccc1 was read as ugtP null kill 1, Bead autofluor 3703, Sa RN4220 lethal 4.5 and PrP 5UTR inh 11.
`COc1cc2c(cc1NC(=O)COC(=O)CNC(=O)c1ccccc1)oc1ccccc12` gave ugtP null kill 7, Mtb hypoxia inh -5, Bead autofluor 4143, Sa RN4220 lethal 38, PrP 5UTR inh -30, BJeLR viability -16 and Mtb hypoxia inh growth -3.
For O=C(NNC(=O)C1[C@H]2CCCC[C@@H]12)Nc1cccc2ccccc12 (some centres not stated) the results were ugtP null kill 8, Mtb hypoxia inh 14, Bead autofluor 4089, Sa RN4220 lethal 3.4, PrP 5UTR inh 6, BJeLR viability -4 and Mtb hypoxia inh growth 3.
For COC(=O)c1ccc(N2CN=C(c3ccc(C)cc3)NC2=S)cc1 the results were ugtP null kill 16, Mtb hypoxia inh 10, Bead autofluor 2037, Sa RN4220 lethal -1.5, PrP 5UTR inh -11, BJeLR viability -2 and Mtb hypoxia inh growth 11.
`COc1ccc(-c2cc(C(=O)N/N=C(\C)c3ccco3)c3ccccc3n2)c(OC)c1` gave Bead autofluor inconclusive, PrP 5UTR inh -14 and BJeLR viability 6.
Screening Clc1ccc(CNCc2cccs2)c(Cl)c1 returned ugtP null kill 4, Mtb hypoxia inh 7, Bead autofluor 2416, Sa RN4220 lethal 7.2, PrP 5UTR inh -3, BJeLR viability -2 and Mtb hypoxia inh growth 6.
Cc1ccc(-n2c(SCC(=O)c3c(N)n(C4CC4)c(=O)[nH]c3=O)nnc2N2CCOCC2)cc1 was read as ugtP null kill 9, Mtb hypoxia inh 7, Bead autofluor 5005, Sa RN4220 lethal 5.1, PrP 5UTR inh -19 and Mtb hypoxia inh growth 5.
Screening Cc1c(C(=O)NCc2ccc3c(c2)OCO3)oc2ccc(S(=O)(=O)N3CCCCCC3)cc12 returned ugtP null kill -10, Mtb hypoxia inh 12, Bead autofluor 4171, Sa RN4220 lethal 2.3, PrP 5UTR inh -10, BJeLR viability -9 and Mtb hypoxia inh growth 13.
Screening CC1(C)CC(NS(=O)(=O)c2ccc(S(=O)(=O)N3CCOCC3)cc2)CCO1 (configuration not stated) returned ugtP null kill 4, Mtb hypoxia inh 8, Bead autofluor 19550*, Sa RN4220 lethal 3.8, PrP 5UTR inh -17, BJeLR viability 7 and Mtb hypoxia inh growth 7.
`COc1ccc(C2SCCN2C(=S)Nc2ccc(F)cc2)cc1` (configuration not stated) gave ugtP null kill 5, Mtb hypoxia inh 11, Bead autofluor 2465, Sa RN4220 lethal 2.1, PrP 5UTR inh -8, BJeLR viability -6 and Mtb hypoxia inh growth 5.
For COc1cnc(-c2ccccn2)nc1Sc1ccc(F)cc1 the results were ugtP null kill -3, Mtb hypoxia inh 7, Bead autofluor 1819, Sa RN4220 lethal 6.0, PrP 5UTR inh -15, BJeLR viability -2 and Mtb hypoxia inh growth 22.
For CCOC(=O)C1=C(c2ccccc2)c2ccccc2N(S(=O)(=O)C(F)(F)F)C1C(=O)OCC (configuration not stated) the results were ugtP null kill 22, Mtb hypoxia inh 3, Bead autofluor 3607, Sa RN4220 lethal 4.7, PrP 5UTR inh -22 and Mtb hypoxia inh growth 7.
`COCCN(CCOC)S(=O)(=O)c1ccc(C(=O)Nc2c(C)n(C)n(-c3ccccc3)c2=O)cc1` gave ugtP null kill 1, Mtb hypoxia inh -4, Bead autofluor 4006, Sa RN4220 lethal 3.8, PrP 5UTR inh -16, BJeLR viability 3 and Mtb hypoxia inh growth -9.
For CCC(C)N(NC(C)=O)c1nc(Cl)nc(NC(C)(C)C)n1 (configuration not stated) the results were ugtP null kill 3, Bead autofluor 2212, Sa RN4220 lethal -0.3, PrP 5UTR inh -15 and BJeLR viability 11.
`CN(CC(=O)Nc1cccc(F)c1)C(=O)C1CSC2(C)CCC(=O)N12` (configuration not stated) gave ugtP null kill 0, Mtb hypoxia inh 3, Bead autofluor inconclusive, Sa RN4220 lethal 1.6, PrP 5UTR inh -7, BJeLR viability 1 and Mtb hypoxia inh growth -2.
Screening COc1ccccc1N(C)S(=O)(=O)c1ccc(C(=O)NC(C)c2ccccc2)cc1 (configuration not stated) returned ugtP null kill 4, Mtb hypoxia inh -11, Bead autofluor 4257, Sa RN4220 lethal 3.0, PrP 5UTR inh -10, BJeLR viability 1 and Mtb hypoxia inh growth -5.
Screening Cc1ccc(C(=O)O)cc1NC(=O)C1CCN(S(=O)(=O)c2ccc3c(c2)OCCO3)CC1 returned ugtP null kill 6, Mtb hypoxia inh 2, Bead autofluor 4190, Sa RN4220 lethal 3.3, PrP 5UTR inh -21 and Mtb hypoxia inh growth 2.
`Cc1nc2nc3c(cn2n1)C(=O)CCC3` gave ugtP null kill -3, Mtb hypoxia inh 3, Bead autofluor 21199*, Sa RN4220 lethal -2.5, PrP 5UTR inh 5, BJeLR viability 5 and Mtb hypoxia inh growth -2.
Screening CCOC(=O)C1=C(C)NC(=O)NC1c1ccc(N(CC)CC)cc1 (configuration not stated) returned ugtP null kill 1, Mtb hypoxia inh 10, Bead autofluor 5186, Sa RN4220 lethal 7.1, PrP 5UTR inh -30, BJeLR viability -9 and Mtb hypoxia inh growth 12.
`COc1cccc2cc(C(C)N(CCCN3CCOCC3)C(=S)Nc3c(C)cccc3C)oc12` (configuration not stated) gave ugtP null kill -1, Mtb hypoxia inh 3, Bead autofluor 5408, Sa RN4220 lethal 1.5, PrP 5UTR inh -14, BJeLR viability -4 and Mtb hypoxia inh growth 13.
Screening CCSc1cc(C)nc2c(-c3ccccc3)c(C)nn12 returned ugtP null kill 0, Mtb hypoxia inh 3, Bead autofluor 6942, Sa RN4220 lethal 2.2, PrP 5UTR inh -13, BJeLR viability -9 and Mtb hypoxia inh growth 0.
Screening O=C(Nc1cc(Cl)ccc1N1CCOCC1)c1ccc(N2CCCCC2)c([N+](=O)[O-])c1 returned ugtP null kill -5, Mtb hypoxia inh 8, Bead autofluor 3452, Sa RN4220 lethal 2.3, PrP 5UTR inh 5, BJeLR viability 7 and Mtb hypoxia inh growth 3.
C=CCNc1sc(C(=O)c2ccccc2)c(N)c1-c1nc2ccccc2s1 was read as ugtP null kill -16, Mtb hypoxia inh -82, Bead autofluor 5731, Sa RN4220 lethal 3.0, PrP 5UTR inh -26, BJeLR viability -4 and Mtb hypoxia inh growth -9.
`CCOC(=O)CC(=O)CSc1nc2c(sc(=S)n2-c2ccccc2)c(=O)[nH]1` gave ugtP null kill 6, Mtb hypoxia inh 5, Bead autofluor 21967*, Sa RN4220 lethal 7.6, PrP 5UTR inh -14, BJeLR viability 0 and Mtb hypoxia inh growth 2.
Screening O=C(NCc1cccs1)Nc1ccc2c(c1)OCO2 returned ugtP null kill 3, Mtb hypoxia inh 16, Bead autofluor 5988, Sa RN4220 lethal 4.9, PrP 5UTR inh -17, BJeLR viability -4 and Mtb hypoxia inh growth 22.

As a working copy, some entries already given:
Screening COc1ccccc1N(C)S(=O)(=O)c1ccc(C(=O)NC(C)c2ccccc2)cc1 (configuration not stated) returned ugtP null kill 4, Mtb hypoxia inh -11, Bead autofluor 4257, Sa RN4220 lethal 3.0, PrP 5UTR inh -10, BJeLR viability 1 and Mtb hypoxia inh growth -5.
Screening Cc1ccc(C(=O)O)cc1NC(=O)C1CCN(S(=O)(=O)c2ccc3c(c2)OCCO3)CC1 returned ugtP null kill 6, Mtb hypoxia inh 2, Bead autofluor 4190, Sa RN4220 lethal 3.3, PrP 5UTR inh -21 and Mtb hypoxia inh growth 2.
`Cc1nc2nc3c(cn2n1)C(=O)CCC3` gave ugtP null kill -3, Mtb hypoxia inh 3, Bead autofluor 21199*, Sa RN4220 lethal -2.5, PrP 5UTR inh 5, BJeLR viability 5 and Mtb hypoxia inh growth -2.
Screening CCOC(=O)C1=C(C)NC(=O)NC1c1ccc(N(CC)CC)cc1 (configuration not stated) returned ugtP null kill 1, Mtb hypoxia inh 10, Bead autofluor 5186, Sa RN4220 lethal 7.1, PrP 5UTR inh -30, BJeLR viability -9 and Mtb hypoxia inh growth 12.
`COc1cccc2cc(C(C)N(CCCN3CCOCC3)C(=S)Nc3c(C)cccc3C)oc12` (configuration not stated) gave ugtP null kill -1, Mtb hypoxia inh 3, Bead autofluor 5408, Sa RN4220 lethal 1.5, PrP 5UTR inh -14, BJeLR viability -4 and Mtb hypoxia inh growth 13.

Next section
Screening COc1ccc(S(=O)(=O)N(C)CC(=O)NC2CC2)cc1OC returned ugtP null kill 1, Mtb hypoxia inh 5, Bead autofluor 5786, Sa RN4220 lethal 1.3, PrP 5UTR inh -27, BJeLR viability -12 and Mtb hypoxia inh growth 1.
Screening O=C1N=C(N2CCCCC2)S/C1=C\c1ccncc1 returned ugtP null kill 1, Mtb hypoxia inh -2, Bead autofluor 6205, Sa RN4220 lethal 2.4, PrP 5UTR inh -28, BJeLR viability 7 and Mtb hypoxia inh growth -1.
`CCO[C@@H]1OC(C(=O)NC2CC2)=C[C@H](c2ccc(C(F)(F)F)cc2)[C@H]1CCCO` gave ugtP null kill -6, Mtb hypoxia inh 5, Bead autofluor 3467, Sa RN4220 lethal -10, PrP 5UTR inh 11, BJeLR viability 10 and Mtb hypoxia inh growth 6.
`Cc1ccccc1-n1c(=O)c2ccccc2n(CC(=O)NCc2ccco2)c1=O` gave ugtP null kill 13, Mtb hypoxia inh 4, Bead autofluor 6159, Sa RN4220 lethal 2.2, PrP 5UTR inh -18, BJeLR viability 0 and Mtb hypoxia inh growth -10.
O=C(CN1C(=O)NC2(CCCC2)C1=O)OCc1c(F)cccc1Cl was read as ugtP null kill 9, Mtb hypoxia inh 3, Bead autofluor 7085, Sa RN4220 lethal 1.1, PrP 5UTR inh -18, BJeLR viability -9 and Mtb hypoxia inh growth -2.
`CCOC(=O)c1cc2ccc(OC)c(OC)c2c(=O)s1` gave ugtP null kill -5, Mtb hypoxia inh 7, Bead autofluor 2534, Sa RN4220 lethal -10.0, PrP 5UTR inh -89, BJeLR viability -4 and Mtb hypoxia inh growth 8.
`CSc1ccc(C(=O)C2CCCN(S(=O)(=O)c3c(C)noc3C)C2)cc1` (configuration not stated) gave ugtP null kill 2, Mtb hypoxia inh -3, Bead autofluor 4311, Sa RN4220 lethal 1.2, PrP 5UTR inh -23, BJeLR viability 11 and Mtb hypoxia inh growth -12.
Screening O=C(O)c1ccc2nc(-c3ccco3)c(-c3ccco3)nc2c1 returned ugtP null kill -1, Mtb hypoxia inh 5, Bead autofluor 2572, Sa RN4220 lethal -0.3, PrP 5UTR inh -79 and Mtb hypoxia inh growth 4.
Screening COCCN1CCn2c(nc3cc(NS(C)(=O)=O)ccc32)C1 returned ugtP null kill 6, Mtb hypoxia inh 17, Bead autofluor 3714, Sa RN4220 lethal 3.7, PrP 5UTR inh 24, BJeLR viability -6 and Mtb hypoxia inh growth 8.
Cc1ccc(-n2c(SCC(=O)N3c4ccccc4Sc4ccccc43)nnc2-c2ccncc2)cc1 was read as ugtP null kill 11, Mtb hypoxia inh 3, Bead autofluor 2401, Sa RN4220 lethal 2.3, PrP 5UTR inh -9, BJeLR viability 3 and Mtb hypoxia inh growth 0.
Screening COc1ccccc1C(=O)NCC(c1cccs1)N1CCc2ccccc21 (configuration not stated) returned ugtP null kill 1, Mtb hypoxia inh 3, Bead autofluor 4937, Sa RN4220 lethal 0.1, PrP 5UTR inh -11, BJeLR viability -1 and Mtb hypoxia inh growth -7.
